Bioassay records from PubChem BioAssay.
Sa ugtP lethal: growth inhibition of S. aureus ugtP deletion strain. AID 1259309. growth inhibition, % (concentration not given with the values). S. aureus RN4220 ugtP deletion, OD600 growth, 16 h; some inactives read as strong as hits. actives 0.54% (n = 330,000);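 active = z-score under -3 and OD600 up to 0.15 on both plates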;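 also: plate controls were untreated wells for no effect and antibiotic for full effect; wells of about 80 µL received 100 nL stock; the first replicate is given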
RN4220 kill: S. aureus RN4220 growth inhibition | OD600, 16 h | inhibition, % (no concentration beside the values) | actives 0.33% (n = 330,000) | AID 1259311;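 active = z-score of -3 or lower and OD600 up to 0.18 on both plates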;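 also: plate controls were untreated cells for no effect and reference antibiotic for full effect; stock transfer was 100 nL into about 80 µL; one replicate is shown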
Autofluor counter: counter-screen for toxin protease inhibitors: compound fluorescence; compound autofluorescence counterscreen, microsphere flow cytometry; active compounds read high; fluorescence intensity (test concentration not listed); actives 3.1% (n = 360,000); AID 624483;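 active = at least 3 SD above the mean of all compounds, about 16000 in these data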;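 also: 100 nL of 1 mM stock went into each well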
BJeLR lethal: BJeLR cell viability loss | BJeLR (HRASV12) viability, CellTiter-Glo ATP luminescence, 48 h; reference of the scale not given here | inhibition, % (no concentration beside the values) | actives 0.17% (n = 300,000);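 active = replicate mean above 50%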;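 also: 50 nL library stock added to about 25 µL; numbers are from one replicate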
PrP UTR inh: inhibition of PrP 5' UTR reporter expression; inhibition, % (concentration not given with the values); actives 0.35% (n = 340,000); cell-based PrP 5' UTR mRNA reporter, plate reader;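 active = every replicate at 50% or more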;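 also: 0 = median of the neutral control wells; tested in H4 reporter cells; numbers are from one replicate; inactives centre near -14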
Mtb hypoxia rep: reduces hypoxia-regulated biosensor signal in M. tuberculosis. M. tuberculosis hypoxia-regulated fluorescent reporter, fluorescence. fluorescence inhibition, % (test concentration not listed). actives 0.1% (n = 300,000);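 active = 35 to 45% if threefold the growth effect, above 45% if 1.5-fold the growth effect; inactive = the rest, general growth blockers included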;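 also: wells of about 50 µL received 100 nL stock; 0% = vehicle wells and 100% = reference inhibitor wells; whole bacteria with a GFP reporter of the hypoxia response; strong numbers were not always called active; many hits fall short of the cut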
Mtb hypoxia rep growth: recorded beside Mtb hypoxia rep, whose call it bears; growth inhibition, %; measured here: M. tuberculosis growth (absorbance);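 0% = vehicle and 100% = reference antibiotic; read after six days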
Starred values were filed as active, the others as inactive; . = not tested or not shown.

structure,PrP UTR inh,Mtb hypoxia rep growth,RN4220 kill,BJeLR lethal,Sa ugtP lethal,Mtb hypoxia rep,Autofluor counter
COc1ccc(N2CCN(CC(=O)Nc3nc(C)cs3)CC2)cc1,-2,9,-0.8,0,15,5,3331
O=C(NCc1ccc2c(c1)OCO2)C1CCN(S(=O)(=O)c2ccc(F)cc2)CC1,-11,7,-3.1,5,-7,4,5743
COc1ccc(CNC2CCCc3ccccc32)cc1OC (stereo not drawn),2,.,.,-1,.,.,8828
O=C(Nc1ccc(N2CCCC2)c(Cl)c1)c1cccnc1,-49,10,3.1,-9,4,1,5794
CCN1CCc2c(OCc3ccc(C)cc3)cccc2C1=O,-19,5,6.5,.,15,7,4197
O=C(NN=C/C=C/c1ccc2c(c1)OCO2)C(O)c1ccccc1 (stereo not drawn),.,3,1.4,.,-2,17,.
COc1ccccc1N(CN1CCCC1=O)C(=O)COc1ccccc1,-11,1,3.1,6,6,10,16310*
CC(=O)n1cc([C@@H]2C=C(C(=O)N3CCN(Cc4ccc5c(c4)OCO5)CC3)O[C@H](OCCCCO)C2)c2ccccc21,-21,.,.,0,.,.,3415
O=C(CSc1nc(-c2ccccc2)nc2c1CCCC2)N1CCOCC1,-4,7,-14,0,-5,16,3343
O=C(Nc1ccc(S(=O)(=O)N2CCOCC2)cc1)C1CC(=O)N(c2ccc(F)cc2)C1 (stereo not drawn),1,2,-2.4,10,-2,-13,5586
Cc1ccc(CNc2nc3c([nH]2)c(=O)n(C)c(=O)n3C)cc1,-2,-2,17,22,14,4,2535
CC(=O)Nc1ccc(C(=O)OCC(=O)N2CCCC2=O)cc1,-5,13,0.4,.,1,6,3475
O=C(Nc1ccc2nc3n(c(=O)c2c1)CCCCC3)c1ccccc1Cl,-2,8,4.9,-1,14,11,4407
COc1ccc(C(C)=O)cc1COC(=O)c1cc(C)oc1C,1,.,6.1,.,-1,.,2780
CCOCCCNC(=O)CN1C(=O)COc2ccc(S(=O)(=O)N3CCOCC3)cc21,-7,5,4.7,-1,4,3,5601
CN1CCN(Cc2ccc(N)cc2)CC1,-30,11,8.9,-1,12,2,3951
CC(=O)c1ccc(OCCCC(=O)Nc2ccc(C)c(S(=O)(=O)N3CCOCC3)c2)cc1,-23,-1,2.8,.,6,7,4573
Cc1ccc(C(=O)N/N=C\c2cccs2)cn1,-27,.,.,2,.,.,2461
COc1cc(CN2CC=C(c3ccc(F)cc3)CC2)cc(OC)c1,1,10,1.2,3,1,19,4694
O=S(=O)(c1ccccc1)c1nc(-c2ccccc2Cl)oc1NCCCN1CCOCC1,13,5,1.4,.,-2,-19,3590
O=C(N/N=C/c1coc2ccc(Cl)cc2c1=O)c1cc(O)cc(O)c1,-22,.,.,6,.,.,5894
COCCNC(=O)C(OC(=O)c1nsc(Cl)c1Cl)C(C)C (stereo not drawn),-29,5,4.9,3,8,1,4618
N#C/C(=C/c1ccc(-c2ccccc2[N+](=O)[O-])o1)C(=O)NCCN1CCCCC1,-7,4,0.8,3,4,13,6176
Cc1nc(COc2ccccc2Cl)sc1-c1ccnc(N)n1,-31,5,10.0,-1,5,-3,3899
O=C(CCCCCNc1nc(=S)[nH]c2ccccc12)N1CCN(c2ccccn2)CC1,-19,3,5.6,-6,15,-11,9610
O=c1c(=Cc2cccn2-c2ccccc2)sc2nc3ccccc3n12,.,9,1.2,.,2,4,.
CC(O)[C@H]1CNC(=O)C(=O)N1CCc1cc(C(F)(F)F)cc(C(F)(F)F)c1 (stereo partly drawn),-2,.,.,-3,.,.,3396
COc1cccc(C(=O)OCCN2CCOCC2)c1,-25,3,3.5,-3,4,13,2450
CCCc1ccc2oc(C(=O)N3CCC(O)CC3)c(C)c2c1,-59,0,2.5,2,-1,2,4351
O=S(=O)(Nc1ccncc1Cl)c1cccc(Cl)c1Cl,-25,1,8.2,-10,5,5,3571
COc1cc([N+](=O)[O-])cc(/C=N/NC(=O)c2ccc(C)nc2)c1O,-24,.,.,-5,.,.,2460
COc1cc(OC)nc(Oc2ccccc2C(=O)Oc2cccc(C)c2)n1,-17,7,2.2,-5,7,12,7524
Cc1ccc(C)c(-c2cc(C(=O)NN3CCOCC3)c3ccccc3n2)c1,-5,9,17,-6,-64,2,4336
CC1CCN(C(=O)Cn2cc(S(=O)(=O)CC(=O)N3CCOCC3)c3ccccc32)CC1,-21,0,-1.9,4,6,8,5285
COC(=O)c1ccc2c(c1)C(=O)/C(=C/c1ccc(C)cc1)O2,-54,-9,2.2,0,-1,5,8326
COC(=O)c1ccc(C=NNC(=O)CC(=O)NCCc2ccccc2)cc1,.,3,-1.6,.,2,-8,.
COc1ccc(S(=O)(=O)N2CCOC2CNC(=O)C(=O)NCCc2ccc(S(N)(=O)=O)cc2)cc1 (stereo not drawn),-21,9,-7.5,22,-2,10,6031
Cc1cccc(N(CC(=O)NC2CCCCC2)C(=O)CCC(=O)Nc2nccs2)c1,-22,-4,4.3,2,-5,-1,5809
CC1(c2ccc3noc(-c4cccc(F)c4)c3c2)OCCO1,-15,-5,-1.3,2,9,5,4677
COc1ccc(/C=N\NC(=O)CNC(=O)C2COc3ccccc3O2)cc1[N+](=O)[O-] (stereo not drawn),-9,.,.,-2,.,.,5369
COc1ccc(N2C(=O)C3[C@@H](C2=O)C2(Cl)C(Cl)=C(Cl)C3(Cl)C2(OC)OC)cc1 (stereo partly drawn),-8,3,13,-3,9,4,2013
OC1(Cc2ccccc2)CCNCC1,.,-5,0.2,1,-5,-12,.
Cc1ccc(S(=O)(=O)N2CCN(c3ncnc4sccc34)CC2)cc1,-13,-11,2.2,-1,3,2,5582
Cc1ccc(C)c(NC(=O)C2CC(O)CN2C(=O)OCc2ccccc2)c1 (stereo not drawn),-13,.,1.7,0,1,.,2776
Cc1ccc(Cc2cnc(NC(=O)/C(C#N)=C/c3ccc(-c4ccccc4[N+](=O)[O-])o3)s2)cc1,-12,2,4.3,-9,-7,0,4437
Cc1ccc(NC(=O)COC(=O)C2CC2)cc1Cl,-27,9,2.8,.,4,15,3685
CCCN1CCC(NC(=S)Nc2ccc(S(N)(=O)=O)cc2)CC1,-21,0,0.7,-5,3,-13,4908
CCOC(=O)N1CCN(c2c(NCCCOC(C)C)c(=O)c2=O)CC1,-73,4,1.5,-12,8,4,5323
COc1cccc(OC)c1OCCNCCO,-23,7,-9.7,4,-10,-3,2930
Cc1cccc(Oc2cnn(C(C)(C)C)c(=O)c2Cl)c1,-9,5,6.6,2,-3,-2,10209
CCCC(=O)N(CCN1CCOCC1)c1nc2c(C)ccc(C)c2s1,-23,1,8.1,-1,-14,13,5215
O=C1C2C(c3ccc(F)cc3)N3C(=O)N(c4cccc(F)c4)C(=O)[C@@]3(Cc3ccc(Cl)cc3)C2C(=O)N1C1CCCCC1 (stereo partly drawn),.,10,-2.8,.,-36,3,.
COc1ccccc1NCC(=O)NN=Cc1cccnc1,.,11,0.6,.,-5,-12,.
CC(C)[C@H](NC(=O)c1ccco1)C(=O)OCC(=O)c1ccc2c(c1)NC(=O)CO2,-14,0,2.4,0,-2,5,2193
CCCCOc1nc2ccccc2c(=O)n1-c1ccccc1,-17,0,18,18,4,17,2152
Cn1cc(C(=O)N2CCC3(CC2)OCCO3)c2c3ccccc3n(C)c2c1=O,-6,14,0.2,-7,-5,-3,23087*
CCc1cccc(C)c1NC(=O)c1ccc2c(c1)CCN2S(C)(=O)=O,-7,10,2.2,2,5,2,3133
CCN(CCn1cccn1)C(=O)CCc1nnc(C2(c3ccc(Cl)cc3)CCC2)o1,-44,6,4.8,6,2,-3,2561
CCc1ccc(OCC(=O)N(C)C2CCS(=O)(=O)C2)cc1 (stereo not drawn),-14,8,-3.5,0,0,3,4749
C=CCN1C(=O)C(C(C)CC)NC1=S (stereo not drawn),-12,-3,2.5,.,3,3,18817*

Rewritten with two lines to a compound: 2 of the compounds above.
Fields – PrP UTR inh | Mtb hypoxia rep growth | RN4220 kill | BJeLR lethal | Sa ugtP lethal | Mtb hypoxia rep | Autofluor counter
> Cc1ccc(NC(=O)COC(=O)C2CC2)cc1Cl
 : -27 | 9 | 2.8 | . | 4 | 15 | 3685
> CCc1ccc(OCC(=O)N(C)C2CCS(=O)(=O)C2)cc1 (stereo not drawn)
 : -14 | 8 | -3.5 | 0 | 0 | 3 | 4749

Remaining list, next part.
structure,PrP UTR inh,Mtb hypoxia rep growth,RN4220 kill,BJeLR lethal,Sa ugtP lethal,Mtb hypoxia rep,Autofluor counter
O=C(O)c1cccc(NC(=S)NN=Cc2c[nH]c3ccccc23)c1,.,12,9.6,.,3,15,.
Cc1c(C(=O)NCc2ccco2)sc2nc(-c3ccccc3)cn12,-22,11,-1.9,14,-14,4,4561
NC(=S)NN=Cc1cccc(Br)c1,.,.,-3.0,.,6,.,.
CCOC(=O)C(Cc1ccc(OC)c([N+](=O)[O-])c1)NC(=O)CCC(=O)Nc1ccc(OC)cc1 (stereo not drawn),-7,8,6.7,-2,5,10,3399
Cc1cc(C(F)(F)F)n(-c2nc(C(=O)NNS(=O)(=O)c3ccccc3)cs2)n1,-12,3,1.9,-2,-5,8,.
O=C(O)C1Nc2c(O)cccc2C2C=CCC12 (stereo not drawn),-4,-3,31,.,-5,4,2125
CCOC(=O)CCNC(=O)Nc1cc2nc(C)n(Cc3cccc(Cl)c3)c2nc1C,-41,-7,-1.2,-6,14,-2,3667
O=C(CN1C(=O)NC(c2ccccc2)(c2ccccc2)C1=O)NCCc1ccc(F)cc1,-22,8,-1.0,.,5,11,4525
COc1ccc(N/C=C/C(=O)c2ccc(OC)c(OC)c2)cc1,-37,2,4.9,-1,6,14,5844
O=C(CSCc1cc(=O)n2ccsc2n1)Nc1ccc(F)cc1,-4,1,4.1,-1,4,4,4948
CCc1ccc(C=Nn2cnnc2)cc1,.,3,2.0,.,7,5,.
Cn1ccnc1SCC(=O)c1ccc(OC(F)F)cc1,-44,12,5.3,0,10,21,3844
COC(=O)c1cc(C)sc1NC(=O)CCc1ccccc1,0,-2,7.5,-3,8,8,4541
Cc1ccc(-c2csc(/C=C3/SC(C)C(=O)N3CC(=O)Nc3ccccc3F)n2)cc1 (stereo not drawn),-18,0,-0.8,.,1,3,2974
COc1ccc(NS(=O)(=O)c2ccc3c(c2)oc(=O)n3C)c(OC)c1,-23,.,2.6,6,-3,.,5358

Gathered by group: the compounds so far with a COOH group.
structure,PrP UTR inh,Mtb hypoxia rep growth,RN4220 kill,BJeLR lethal,Sa ugtP lethal,Mtb hypoxia rep,Autofluor counter
O=C(O)c1cccc(NC(=S)NN=Cc2c[nH]c3ccccc23)c1,.,12,9.6,.,3,15,.
O=C(O)C1Nc2c(O)cccc2C2C=CCC12 (stereo not drawn),-4,-3,31,.,-5,4,2125

Following part:
structure,PrP UTR inh,Mtb hypoxia rep growth,RN4220 kill,BJeLR lethal,Sa ugtP lethal,Mtb hypoxia rep,Autofluor counter
COc1cc2c(cc1OC)C(c1cc3ccc(C)cc3[nH]c1=O)N(C(=O)c1ccco1)CC2 (stereo not drawn),-15,2,2.6,-1,0,-2,4983
CN(CC(=O)Nc1ccccc1C(F)(F)F)C(=O)CCc1nc2ccccc2c(=O)[nH]1,-13,2,4.4,3,4,1,4847
O=C(O)CCCNS(=O)(=O)/C=C/c1ccccc1,-21,8,3.0,-5,2,-4,2041
COc1ccc2[nH]c3c(c2c1)CCN1C(=O)C(CC(=O)NCCCN(C)C)C[C@H](C(=O)N2CCOCC2)[C@@]31CCC1CCCC1 (stereo partly drawn),-10,.,-0.3,.,0,.,3604
CC1CCCCC1NC(=O)CN1C(=O)c2cccc(N)c2C1=O (stereo not drawn),-11,9,3.8,1,2,0,3960
CCN(CC)CCOC(=O)c1ccc(Cl)cc1Cl,-44,12,3.6,7,5,18,3986
NCCOc1ccc(C2CCCCC2)cc1,-7,3,1.5,-8,6,6,3904
CCn1nnnc1-c1ccc(OC)c(S(=O)(=O)N2CCCCC2)c1,2,14,3.8,-12,0,2,4094
CCOC(=O)c1c(-c2ccccc2)c(C(C)=O)c(=O)n(C)c1C,-40,.,4.0,1,4,.,6822
Cc1ccc(-c2csc(NC(=O)CSc3nc4ccccc4[nH]3)n2)cc1,-17,9,-5.6,-11,0,3,2406
O=C(O)Cn1c(Cc2ccccc2)nc2ccccc21,-25,.,.,-4,.,.,3830
